Source: PubChem (several laboratories)
Hsc70 ATP site – small molecules displacing fluorescent ligand from Hsc70 – biochemical, fluorescence polarization, primary screen (AID 568); Hsc70 fluorescence polarization, probe displacement; higher % means a stronger effect; strong numbers were not always called active; one-dose displacement, % at 20 µM; IC50 in µM for titrated hits; 83,000 tested, under 10 active;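 active means displacement above 50% without optical interference and an IC50 on retest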;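 further: ATPase domain with a fluorescein-tagged ATP probe; 0% = vehicle and 100% = excess ADP; read after one hour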
WNV NS2B-NS3 inh – WNV NS2B-NS3 proteinase inhibition; P06935; WNV NS2B-NS3 protease, fluorogenic substrate Ex360/Em465; stronger effect = lower value; z-score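 (tested at a level between 10 and 100 µM)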; 0.18% of 65,000 active;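 active means z-score at -3 or under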;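 further: score is relative to mean and spread of the compound wells of a plate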
Target sequence (P06935 1371-1501 limits assumed): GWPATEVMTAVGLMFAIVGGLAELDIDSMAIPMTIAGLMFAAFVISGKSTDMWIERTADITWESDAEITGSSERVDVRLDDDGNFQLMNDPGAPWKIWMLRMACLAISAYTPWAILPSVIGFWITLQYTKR
Target sequence (P06935 1502-1679 limits assumed): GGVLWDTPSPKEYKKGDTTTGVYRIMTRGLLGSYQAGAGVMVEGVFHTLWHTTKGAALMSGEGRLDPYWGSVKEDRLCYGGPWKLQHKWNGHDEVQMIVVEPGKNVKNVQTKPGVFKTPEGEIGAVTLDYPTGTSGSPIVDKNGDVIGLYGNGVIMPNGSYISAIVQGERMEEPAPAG
MT1-MMP reporter – inhibitors of MT1-MMP promoter transcription, cell-based, luciferase reporter, luminescence (AID 618) | MT1-MMP promoter luciferase reporter cells, luminescence | calls from a first round at 10 µM; hits with a dose series show EC50 in µM | 0.62% of 87,000 active;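 active means over half of the reporter light lost at 10 µM or EC50 under 50 µM; inactive means the rest and hits that failed the dose series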;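 further: actives suppress MT1-MMP promoter-driven transcription so potencies describe inhibitors; HT1080 fibrosarcoma cells; overnight exposure; toxic or luciferase-blocking compounds were not removed from the actives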
The depositor's hits bear a star; i = inactive; nt = no result given; + = active, no number. The list is partial; rates above refer to the full screens.

SMILES	Hsc70 ATP site	WNV NS2B-NS3 inh	MT1-MMP reporter
O=C(c1ccc(S(=O)(=O)N2CCCCC2)cc1)N1CCN(Cc2ccc3c(c2)OCO3)CC1	-0.4%	-0.1	i
COc1ccc(C2C(C(=O)O)CC(=O)N2c2ccc(OC)cc2)cc1 (stereo unspecified)	0.8%	1.1	i
Cc1cc(OCC(F)(F)C(F)(F)C(F)(F)C(F)F)nc(N)n1	-2.4%	nt	i
CCOC(=O)c1cnc2c(-c3ccc(Cl)cc3)c(C)nn2c1N	-0.6%	nt	i
Cc1nc(NC2=NCN(Cc3ccc4c(c3)OCO4)CN2)nc2ccccc12	-5.8%	-0.49	i
CC(C)(C)C(=O)Nc1nnc(Cc2ccccc2)s1	2.0%	nt	i
CCSc1nc(N)c(C#N)c(-c2ccco2)c1C#N	6.0%	nt	i
COc1ccc(N2CCN(C(=O)CSc3nnc(CNc4ccccc4)o3)CC2)cc1	3.8%	1.2	i
Cc1cc(=O)oc(C)c1C(=O)N1CCN(Cc2ccc3c(c2)OCO3)CC1	-3.9%	0.36	i
COc1cccc(CNC(=O)N[C@@H](CC(C)C)C(=O)O)c1	3.4%	nt	i
Clc1ncn(C23CC4CC(CC(C4)C2)C3)n1	-0.2%	-0.77	i
COc1ccc(OC)c(C2C(C(=O)c3cccs3)=C(O)C(=O)N2c2cc(C)on2)c1 (stereo unspecified)	-3.3%	-0.72	i
CCC(C(=O)O)n1nnc(-c2ccc(-c3ccc(OC)cc3)cc2)n1 (stereo unspecified)	-6.9%	0.39	i
COCC(=O)N1CCC(n2nnc3cc(F)ccc32)CC1	-6.8%	-0.67	i
CS(=O)(=O)NCc1ccc(C(=O)NC2CCCCC2)cc1	8.8%	-0.88	i
CCC(C)[C@H](NC(=O)NCc1ccccn1)C(=O)OC (stereo partly specified)	12%	nt	i
COC(=O)c1cc(OC)c(OC)cc1N=CC1=C(O)CC(C)(C)CC1=O	4.8%	-0.39	i
Cc1cc(C)c(S(=O)(=O)NCc2cn3c(C)csc3n2)cc1C	4.1%	-1.4	i
Cc1ccccc1Cn1ccc(NC(=O)c2cc3nc(-c4ccco4)cc(C(F)(F)F)n3n2)n1	1.6%	-1.1	i
c1cnc(NC2C3CC4CC(C3)CC2C4)nc1 (stereo unspecified)	0.2%	-0.7	i
O/N=C1\CCCc2nnc3c(c21)CCCC3	5.1%	-0.3	i
O=c1cc(CSc2nnnn2-c2ccccc2)nc2scc(-c3ccccc3)n12	-4.1%	-1.2	i
Cc1nn(Cc2ccccc2)c(C)c1C(=O)Nc1ccc(N2CCOCC2)cc1	1.0%	-1.1	i
O=C(NC(Cc1ccc2c(c1)OCO2)C(=O)NC(Cc1ccccc1)C(=O)O)c1ccccc1 (stereo unspecified)	4.0%	nt	i
COc1ccc(N2CCN(CCCNC(=O)C3(S(=O)(=O)c4ccc(Cl)cc4)CC3)CC2)cc1	-4.8%	0.71	i

Overlap with the part before: 2 compounds, then new ones.
SMILES	Hsc70 ATP site	WNV NS2B-NS3 inh	MT1-MMP reporter
O=C(NC(Cc1ccc2c(c1)OCO2)C(=O)NC(Cc1ccccc1)C(=O)O)c1ccccc1 (stereo unspecified)	4.0%	nt	i
COc1ccc(N2CCN(CCCNC(=O)C3(S(=O)(=O)c4ccc(Cl)cc4)CC3)CC2)cc1	-4.8%	0.71	i
COc1cc(OC)c(-c2nn3c(-c4cccnc4)nnc3s2)cc1OC	-1.0%	0.15	i
Cc1ccc(-c2nnn(Cc3nc(N)nc(N4CCOCC4)n3)n2)cc1	6.9%	-0.65	i
CCOC(=O)C1=C(O)CSC1=Nc1ccccc1	-10%	-0.78	i
CCCn1c(SCc2ccccc2)nc2c1c(=O)[nH]c(=O)n2C	-0.6%	0.14	i
C=CCn1c(SCC(=O)N2CCOCC2)nc(O)cc1=O	-11%	nt	i
Nn1c(Cc2ccccc2F)nnc1SCC(=O)N1CC(=O)Nc2ccccc21	-0.5%	0.05	i
NC1=NC2(CCN(Cc3ccccc3)CC2)n2c(nc3ccccc32)N1	-5.8%	-0.77	i
CC(=O)NC1Sc2ccccc2N=C1c1ccccc1 (stereo unspecified)	-0.1%	-0.06	i
Fc1ccc(OCc2nn3c(Cn4nnc5ccccc54)nnc3s2)cc1	2.8%	1.6	i
CCCSc1nc(C)c(CC(=O)OCC)c(=O)[nH]1	1.7%	-1.1	i
CCc1ccc2oc(-c3ccc(N)cc3)nc2c1	-3.1%	0.17	+
O=C(NCC(=O)N(Cc1ccco1)C(C(=O)NC1CCCC1)c1cccnc1)c1cccs1 (stereo unspecified)	6.0%	-1.1	i
Cc1noc(NS(=O)(=O)c2ccc(NC(=O)c3cnc4scc(C)n4c3=O)cc2)c1C	-1.0%	1.1	i
O=C1c2ccccc2C(=O)N1C/C=C/c1ccccc1	4.1%	1.5	i
COc1ccc(CNC(=O)C(C)NC(=O)c2cc3ccccc3o2)cc1 (stereo unspecified)	-1.8%	-0.4	i
CCOc1cccc(C(=O)Nc2nc(-c3ccc(S(=O)(=O)N4CCOCC4)cc3)cs2)c1	5.9%	0.56	i
O=C(CSc1nnc(-c2ccncc2)n1-c1ccc(Cl)cc1)NCc1cccs1	-0.5%	nt	i
Clc1ccccc1OCCCCn1ccnc1	-3.6%	-0.4	i
CCOc1cc(/C=N/O)cc(Br)c1OC	0.7%	-0.42	i
COc1ccc(/C(O)=C2/C(=O)C(=O)N(CCCN(C)C)C2c2ccco2)cc1Cl (stereo unspecified)	-2.8%	0.18	i
C=CCn1c(=O)c2c(C)c(C)sc2n2c(Nc3ccc(OC)cc3)nnc12	1.3%	0.91	i
COc1ccc(-n2c(SCCC#N)nnc2-c2cc(Cl)ccc2OC)cc1Cl	-18%	0.57	i
CC(OC(=O)CCCc1nc2ccccc2s1)C(N)=O (stereo unspecified)	0.7%	nt	i
Cc1cc(-n2nnc3ccccc32)nc2ccccc12	-4.1%	-0.55	i
CS(=O)(=O)N(CC(=O)Nc1ccc2c(c1)OCCO2)Cc1ccc(Cl)cc1	4.8%	0.22	i
SMILES	Hsc70 ATP site	WNV NS2B-NS3 inh	MT1-MMP reporter
CN1CC=C2C(C#N)=C(N)C(C#N)(C#N)C(Cc3ccccc3)C2C1 (stereo unspecified)	17%	-1	i
CCOc1ccccc1NC(=O)NS(=O)(=O)c1ccc(C)cc1	0.5%	nt	i
COc1ccc2c(c1)OCC1=C2CCC2(C)C(=O)CC=C12 (stereo unspecified)	-12%	-0.77	i
CCOC(=O)c1[nH]c2ccc(OC)cc2c1NC(=O)CN1CCSCC1	-7.9%	1.3	i
O=C(CSc1ncnc2ccccc12)NCCCO	1.3%	0.77	i
Cc1noc(C)c1S(=O)(=O)NC1CCN(Cc2ccccc2)CC1	5.0%	0.2	i
O=C(CN1CCN(C(c2ccccc2)c2ccccc2)CC1)N1CCOCC1	-1.1%	-0.61	i
CCOC(=O)C1=C(N)c2ccccc2CC1C(C)C (stereo unspecified)	-4.7%	0.14	i
CNC(=O)c1nnn(Cc2ccccc2)c1NC(C)=O	-4.2%	1.4	i
COCCNC(=O)CN1CCC(NC(=O)Nc2ccc(C(F)(F)F)cc2)CC1	-3.2%	-0.86	i
CCN1CCN(C(=O)c2nn(-c3ccc(OC)cc3)c(=O)c3c2c2ccccc2n3C)CC1	0.0%	-0.06	i
CCc1ccc(OCc2nnc(SCC(=O)NCc3ccco3)o2)cc1	1.8%	-0.83	i
Cc1noc(C)c1S(=O)(=O)Nc1ccc(C(=O)N2CCCCC2)cc1	5.3%	nt	i
Cc1nn(-c2ccccc2)c(C)c1NC(=O)c1ccc(S(=O)(=O)N2CCCC2)cc1	3.2%	-1.1	i
O=C(CN1C(=O)NC2(CCOc3ccccc32)C1=O)Nc1ccc2c(c1)OCCO2 (stereo unspecified)	-0.7%	0.5	i
O=C(C1CCN(S(=O)(=O)c2cccnc2)CC1)N1CCN(c2ccc(Cl)cc2)CC1	-4.0%	-0.41	i
CCOc1ccc(C2C(C#N)=C(N)SC(N)=C2C#N)cc1OCC	-48%	-1.1	i
C/C(=C\C#N)n1nc(C)cc1N	6.0%	0.82	i
OC(CN1CCOCC1)CN(c1ccccc1)c1ccccc1 (stereo unspecified)	0.2%	-0.28	i
COC(=O)CS(=O)(=O)c1nnc([C@H](Cc2ccccc2)NC(=O)OC(C)(C)C)o1	-0.6%	0.4	i
CCOC(=O)c1ccc(NC(=O)CSc2nccn2C)cc1	-2.2%	-0.46	i
CCOc1ccc(S(=O)(=O)N2CCCCC2)c2ccccc12	-3.5%	0.3	i
OC1CCCN(Cc2ccc3c(c2)Cc2ccccc2-3)C1 (stereo unspecified)	3.2%	-0.65	i
Cc1ccc(-c2cc(C(=O)Nc3c(C)n(C)n(-c4ccccc4)c3=O)[nH]n2)c(O)c1	-1.0%	0.48	i
CCOC(=O)C1=C(N)OC2=C(C(=O)CCC2)C1c1ccco1 (stereo unspecified)	-2.7%	-1.4	i
SMILES	Hsc70 ATP site	WNV NS2B-NS3 inh	MT1-MMP reporter
CC(C)N1C(=O)CCC1C(=O)N1CCN(c2ccccn2)CC1 (stereo unspecified)	12%	0.4	i
COC(=O)CN1C(=O)C2(OCCCO2)c2ccccc21	-4.8%	2.1	i
N/C(Cc1ccc([N+](=O)[O-])cc1)=N\OC(=O)c1ccc([N+](=O)[O-])cc1	0.7%	nt	i
CCS(=O)(=O)N1CCC(NC(=O)c2ccco2)CC1	-2.3%	1.1	i
CCCC(=O)O[C@@H]1C[C@@H](C)N(C(=O)c2ccccc2)c2ccc(C)cc21	1.5%	nt	i
CC(C)C(NC(=O)C12CC3CC(CC(C3)C1)C2)C(=O)NC1=NCCS1 (stereo unspecified)	1.5%	-0.75	i
O=C(O)c1cccc2[nH]c(C(F)(F)F)nc12	0.1%	-1.1	i
N#CCc1ccc(NS(=O)(=O)c2ccc(N3CCCC3=O)cc2)cc1	4.9%	1.1	i
CCCSC1=C(C#N)C(c2ccccc2C)C(C(=O)OC)C(=O)N1 (stereo unspecified)	-6.9%	0.19	i
O=C(Cc1ncn[nH]1)NCCc1ccccc1	-0.4%	-0.97	i
NC(=O)c1cc(Br)cc2c3c([nH]c12)CCCC3	13%	-0.68	i
Cc1nc(C)c(C(=O)Nc2nc3c(C)cccc3s2)o1	-4.8%	-1.8	i
Cc1ccc(CSCC(=O)Nc2ccc3c(c2)OCO3)cc1	-1.3%	nt	i
Clc1ccc(C(c2nnnn2C2CCCC2)N2CCN(Cc3ccncc3)CC2)cc1 (stereo unspecified)	1.8%	-0.25	i
COc1ccc2[nH]c(=O)c(CNC3CCCCC3)cc2c1	3.4%	0.11	i
COc1ccc(CN2c3cc(S(=O)(=O)N4CCOCC4)ccc3N3CCCC32)cc1 (stereo unspecified)	-4.2%	nt	i
CCC(CC)c1nnc(NC(=O)c2nc3nc(C)cc(C)n3n2)s1	-3.3%	nt	i
COc1ccc(NCc2nnc(SCC(=O)c3ccc(OC)cc3)o2)cc1	4.2%	nt	i
N=c1c2c(-c3ccccc3)c(-c3ccccc3)n(Cc3ccco3)c2ncn1CCO	-2.5%	nt	i
COc1ccccc1C(=O)Nc1nnn(C)n1	1.8%	-0.61	i
Cc1ccc(Cn2nc(C)c(NC(=O)C3(C)CC3(Br)Br)c2C)cc1 (stereo unspecified)	3.4%	nt	i
Cc1cc(C)n(-c2ccc(C(=O)Nc3ccc4c(c3)OCCO4)cc2)n1	2.9%	1.9	i
COc1ccc(OC)c(-c2csc3nnc(SCC(=O)Nc4ccc(NC(C)=O)cc4)n23)c1	22%	1.1	i
COC(=O)c1cc2c(s1)-c1ccccc1OC2	1.0%	5	i
CCN(CC)c1cnn(C/C(=N\OC)c2ccc(Cl)cc2)c(=O)c1Br	-25%	nt	i
SMILES	Hsc70 ATP site	WNV NS2B-NS3 inh	MT1-MMP reporter
CC12CCC(C(=O)NC3CCCC3)(CC1=O)C2(C)C (stereo unspecified)	7.4%	-0.49	i
COc1cc(F)ccc1S(=O)(=O)N1CCN(C23CC4CC(CC(C4)C2)C3)CC1	-1.4%	nt	i
CCc1cc2c(N3CCCCC3)ncnc2s1	5.1%	0.08	i
Cn1c(=O)n(-c2ccc(Cl)cc2)c(=O)c2c3c(sc21)COC(C)(C)C3	1.7%	nt	i
CCOC(=O)CSc1nnc(-c2ccc(OC)cc2)n1CC	2.3%	-0.46	i
O=C(c1ccco1)N1CCN(Cc2cccc(F)c2)CC1	8.5%	1.2	i
C=C(C)Cn1c(SCCN2CCOCC2)nc2c1c(=O)[nH]c(=O)n2C	-1.5%	nt	i
O=C(NC1CCCCC1)C1CCN(c2cnccn2)CC1	1.7%	0.57	i
CC(=O)OC12CC3CC(C1)C(=NO)C(C3)C2	-5.9%	-0.43	i
COc1ccccc1CNC(=O)CCCNS(=O)(=O)c1cccc2nsnc12	0.5%	-0.74	i
Cc1ccccc1-n1nc(-c2ccc(N)cc2)cc1N	7.2%	-0.91	i

A second format for part of the listing above.
SMILES: Cn1c(=O)n(-c2ccc(Cl)cc2)c(=O)c2c3c(sc21)COC(C)(C)C3
  Hsc70 ATP site = 1.7%; WNV NS2B-NS3 inh = nt; MT1-MMP reporter = i

SMILES: CC(=O)OC12CC3CC(C1)C(=NO)C(C3)C2
  Hsc70 ATP site = -5.9%; WNV NS2B-NS3 inh = -0.43; MT1-MMP reporter = i

SMILES: Cc1ccccc1-n1nc(-c2ccc(N)cc2)cc1N
  Hsc70 ATP site = 7.2%; WNV NS2B-NS3 inh = -0.91; MT1-MMP reporter = i

SMILES: COc1cc(F)ccc1S(=O)(=O)N1CCN(C23CC4CC(CC(C4)C2)C3)CC1
  Hsc70 ATP site = -1.4%; WNV NS2B-NS3 inh = nt; MT1-MMP reporter = i
